# Mtb growth: Mycobacterium tuberculosis H37Rv growth inhibition, cell based, confirmatory dose response (AID 1949) | most inactive calls were filed without a number and no value below 0 was filed | M. tuberculosis H37Rv growth inhibition | hit rate 1.6% among 100,000 | inhibition, % at 10 µg/mL; hits with a dose series show IC50 in µg/mL;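 active means confirmed in a dose series; inconclusive means about 50% or more but not retested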;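 further: bacteria grown 7 days with compound before Alamar blue readout; 0% = untreated bacteria and 100% = reference antibiotic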
# * = called active by the depositor; i = inactive; ? = inconclusive. Only part of the results is shown; rates above refer to the full screens.
# Start of the listing, in advance:
Molecule,Mtb growth
CC12CCC(C(=O)NCc3ccc4c(c3)OCO4)(C(=O)C1=O)C2(C)C (stereo not given),i
COC(=O)c1cccc(Oc2nc3c(c(=O)n(C)c(=O)n3C)n2Cc2ccc(Br)cc2)c1,i
CCOC(=O)N1CCN(C(=S)Nc2ccc3nsnc3c2)CC1,4.4%
N#CCC(=O)NCC1(c2ccccc2)CCCC1,0.6%

# All compounds of this part, from the first entry:
Molecule,Mtb growth
CC12CCC(C(=O)NCc3ccc4c(c3)OCO4)(C(=O)C1=O)C2(C)C (stereo not given),i
COC(=O)c1cccc(Oc2nc3c(c(=O)n(C)c(=O)n3C)n2Cc2ccc(Br)cc2)c1,i
CCOC(=O)N1CCN(C(=S)Nc2ccc3nsnc3c2)CC1,4.4%
N#CCC(=O)NCC1(c2ccccc2)CCCC1,0.6%
COc1cc(C2Nc3c(Cl)cccc3C3C=CCC32)cc(OC)c1OC (stereo not given),5.2%
O=C(CN1CCCC1)N1CCN(c2nnc(-c3ccccc3)c3ccccc23)CC1,0.3%
COC(=O)c1sccc1NC(=O)C1CC2CCC1C2 (stereo not given),1.5%
CC1CCCN(C(=S)NC2CCCC2)C1 (stereo not given),i
O=C1CC(c2cc(F)ccc2F)c2cc3c(cc2N1)CCC3 (stereo not given),i
O=S(=O)(Nc1ccc(F)cc1)N1CCCCC1,i
CC(=O)Nc1ccc(NC(=O)Nc2ccccc2C)cc1,i
COc1ccc(-c2cc(=O)[nH]c(SCC(=O)Nc3ccc(Oc4ccccc4)cc3)n2)cc1,i
C=CCn1c(C(NC(=O)c2ccc(Cl)cc2Cl)C(C)C)n[nH]c1=S (stereo not given),i
S=c1[nH]nc(-c2ccc(Cl)cc2)n1C1CCCCC1,i
CC(NC(=O)Cc1cccs1)c1ccc2c(c1)OCO2 (stereo not given),i
O=C(O)C1C2C=CC(O2)C1C(=O)NCc1ccc(Cl)c(Cl)c1 (stereo not given),i
COC(=O)c1ccc(CSc2nncn2Cc2ccc(C(=O)OC)cc2)cc1,0.1%
COC(=O)CC1=C(C(=O)OC)C(c2ccccc2)NC(=O)N1 (stereo not given),i
CCOc1ccccc1OCC(=O)Nc1ccccc1C(=O)O,i
CC(C)(C)c1ccc(C(=O)NC(=S)NCc2cccnc2)cc1,2.47µg/mL*
CCN(Cc1ccccc1)C1CCN(Cc2ccccn2)CC1,i
CS(=O)(=O)N1CCN(c2ccc(NC(=O)c3ccc(C#N)cc3F)cc2)CC1,0.3%
CCOCCC(=O)N1CCC(C(=O)OCC)CC1,i
COc1ccc(S(=O)(=O)N2CCN(c3ccnc4cc(Cl)ccc34)CC2)cc1,3.0%
CCOc1ccccc1OCCOCCOc1ccc(Cl)cc1C,8.6%
O=S(=O)(Nc1nc2ccccc2nc1Nc1ccc(F)cc1)c1ccccc1,i
CCC(C)Cn1c(CCCO)nc2ccccc21 (stereo not given),i
COc1ccc(N(CC(=O)N2CCN(c3cc(Cl)ccc3C)CC2)S(=O)(=O)c2ccc(C)c([N+](=O)[O-])c2)cc1,i
Cc1ccc(Cn2c(=N)c(C#N)cc3c(=O)n4cccc(C)c4nc32)cc1,i
O=C(Oc1ccc(F)cc1)c1ccc([N+](=O)[O-])cc1,31.1%

# Copied from the list.
# Mtb growth, `COc1cc(C2Nc3c(Cl)cccc3C3C=CCC32)cc(OC)c1OC` (stereo not given) is entered as 5.2%
# Mtb growth, `O=C(CN1CCCC1)N1CCN(c2nnc(-c3ccccc3)c3ccccc23)CC1` is entered as 0.3%
# Mtb growth, `CCOc1ccccc1OCCOCCOc1ccc(Cl)cc1C` is entered as 8.6%

# Next entries
Molecule,Mtb growth
COc1ccc(S(=O)(=O)N2CCC(C(=O)Nc3c(F)cccc3F)CC2)cc1,i
O=C1c2ccccc2C(=O)N1CCSc1ccccc1,i
O=C1CSC(c2ccc3c(c2)OCO3)c2c(-c3ccccc3)nn(-c3ccccc3)c2N1 (stereo not given),0.4%
O=C(O)C1CCN(c2ccc(C(F)(F)F)cc2[N+](=O)[O-])CC1,i
CCc1ccc(NC(=O)C2CCN(C(=O)c3cccc(Cl)c3)CC2)cc1,i
Cc1ccc(S(=O)(=O)n2nnc3ccccc32)cc1C,1.6%
Cc1ccc(OCC(=O)NC(=S)Nc2ccc(C(=O)O)cc2)cc1C,i
S=C(Nc1ccccc1)Nc1ccccc1C1CC1,i
CCOC(=O)CSc1nc2ccc(I)cc2c(=O)n1C,7.6%
COc1ccc(OC)c(N(CC(=O)Nc2ccccc2C(C)C)S(C)(=O)=O)c1,i
O=C(CCn1cnc2ccccc2c1=O)Nc1ccc2c(c1)OCCO2,i
Cc1cc(C)c(C#N)c(N2CCN(CCOc3ccc(Cl)cc3)CC2)n1,3.7%
COc1ccccc1Cn1cnc2c1c(=O)n(C)c(=O)n2C,i
CCOC(=O)c1cnc2ccc(C(=O)OC)cc2c1Nc1ccc(NC(C)=O)cc1,i
Cc1nc2sc3c(c2c(=O)n1O)CCCC3,i
COc1ccc(OC)c(C2C(C(=O)c3ccco3)=C(O)C(=O)N2CCN(C)C)c1 (stereo not given),i
CSc1nnc(-c2ccc(Br)cc2)o1,i
Cc1cc(-c2ccccc2)nn1C(CC(=O)O)C(=O)O (stereo not given),i
COc1ccc(N(C(C)C(=O)N2CCCC2)S(C)(=O)=O)cc1 (stereo not given),i
O=C(CSc1nnc(-c2ccncc2)n1-c1ccccc1)Nc1ccc(Cl)cc1,i
COc1ccc(S(=O)(=O)N2CCC(C(=O)NC(C)c3ccccc3)CC2)cc1OC (stereo not given),0.7%
CCOC(=O)c1ccc(NC(=O)c2cnccn2)cc1,i
O=C(COc1ccc(-c2cnc3ccccc3n2)cc1)c1cccc([N+](=O)[O-])c1,7.2%
COc1cc(SC)ccc1C(=O)Nc1cc(Cl)ccc1Cl,i
CCOC(=O)c1sc(NC(=O)C(CC)Oc2ccccc2)c(C(=O)OCC)c1C (stereo not given),i
CCc1nnc(NS(=O)(=O)c2ccc(NC(=S)NC(=O)Cc3ccc(Cl)cc3)cc2)s1,9.3%
CCOc1ccc(N/C(=N\S(=O)(=O)c2ccccc2)c2ccc(Cl)cc2)cc1,i
Cc1ccc(CNC(=O)C2CCN(S(=O)(=O)c3ccc(F)cc3)CC2)cc1,i
CCOC(=O)c1cccc(NC(=O)CN2C(=O)C3CC=CCC3C2=O)c1 (stereo not given),1.8%
O=C(Nc1cccc(NC(=O)c2cc(F)c(F)cc2Cl)c1)c1cccs1,13.4%

# Rewritten as labelled records: 3 of the compounds above
> C=CCn1c(C(NC(=O)c2ccc(Cl)cc2Cl)C(C)C)n[nH]c1=S (stereo not given)
  Mtb growth: i
> S=c1[nH]nc(-c2ccc(Cl)cc2)n1C1CCCCC1
  Mtb growth: i
> CC(NC(=O)Cc1cccs1)c1ccc2c(c1)OCO2 (stereo not given)
  Mtb growth: i

# Going on with the list.
Molecule,Mtb growth
O=C(CSc1nc(-c2ccccc2)cs1)NCc1ccco1,3.2%
CC(=O)c1ccc(NC(=O)CSc2nncn2C)cc1,i
O=C(NCCCN1CCN(CCCNC(=O)c2cccs2)CC1)c1cccs1,i
Cc1ccc(C(=O)COC(=O)c2ccc(NC(=O)c3ccc(Cl)cc3)cc2)cc1[N+](=O)[O-],i
CC(=O)Nc1ccc2nc(SCc3cccc(Cl)c3)sc2c1,5.8%
C=CCc1ccccc1OCc1cccc(C(=O)NC2CCCCC2)c1,i
O=C(Nc1ccc2c(c1)Cc1ccccc1-2)c1cccc([N+](=O)[O-])c1,1.2%
Cc1ccc(C(=O)Cn2c(-c3ccccc3)nnc2-c2ccccc2)cc1C,0.6%
COc1cc(/C=C/c2ccc3cccc(OC)c3n2)cc(Cl)c1OC,i
COc1ccc(-c2csc(NC(=S)NC(=O)c3cc(Cl)ccc3OC)n2)cc1OC,1.0%
COc1ccccc1NC(=O)CN(c1ccc(F)cc1)S(C)(=O)=O,i
Cc1c(OCc2ccccc2Br)ccc2c3c(c(=O)oc12)CCC3,i
COc1ccc(-n2c(C)nnc2SCC(=O)N2C(C)CCCC2C)cc1 (stereo not given),i
Cc1ccc(C(=O)O)cc1NC(=O)Cc1ccc(Cl)cc1,i
CC1(C)CC(NC2CCCCC2)CC(C)(C)N1,i
COc1ccc(C(=S)N2CCN(C(c3ccccc3)c3ccccc3)CC2)cc1OC,2.2%
CC(=O)OCc1cc(/C=C(/C#N)C(N)=S)c(C)cc1C,i
O=C(NN1CCOCC1)c1ccccc1Br,i
COc1ccc(OC(C)C(=O)Nc2ccc(C(=O)O)cc2)cc1 (stereo not given),i
COc1ccccc1NC(=O)C1=C(C)NC2=C(C(=O)CC(c3ccc(OC)c(OC)c3)C2)C1c1coc2ccccc2c1=O (stereo not given),?
COc1cc2c(cc1NC(=O)c1c(Cl)cccc1Cl)oc1ccccc12,0.7%
CC(=O)NC(c1ccc(C(C)C)cc1)c1c(O)ccc2ccc(O)cc12 (stereo not given),9.3%
CC1=C(C(=O)OCc2ccccc2)C(c2ccccc2I)NC(=O)N1 (stereo not given),i
Cc1nc2cc(NC(=O)Nc3ccc(N4CCOCC4)cc3)ccc2o1,i
Nc1nc(CSc2nnnn2-c2ccccc2)nc(N2CCCc3ccccc32)n1,0.1%
O=C(Nc1cc(Cl)c(O)c(Cl)c1)C1CCCO1 (stereo not given),i
CCc1c(C(=O)NNC(=S)NC2CCCCC2)csc1C,i
Cc1ccc(-c2nnc(Nc3ccc(F)cc3)c3ccccc23)cc1S(N)(=O)=O,i
O=C(CN1C(=O)c2ccccc2C1=O)Oc1ccccc1-c1ccccc1,i
Cc1nnc2sc(-c3csc4c3CCCC4)nn12,i
CCc1ccc(OCC(=O)Nc2ccccc2NC(=O)COc2ccc(CC)cc2)cc1,1.9%
Cn1c(-c2ccc3ccccc3n2)n[nH]c1=S,i
CCOc1ccc(NC(=O)c2ccc(F)cc2C)cc1,i
Cc1cccc(C(=O)NC(=S)Nc2ccc(C(=O)O)c(Cl)c2)c1,i
Cc1cc(C)c(NC(=O)C(C)(C)C)c(Cl)c1,i
CCOc1cccc(OCCCCn2cnc3ccccc3c2=O)c1,0.8%
CCOc1ccc(NC(=O)CSc2nnc(COc3cccc(C)c3)n2C)cc1,22.5%
O=C(CSc1n[nH]c(-c2ccc(Cl)cc2)n1)c1ccc(Br)cc1,i
COC(=O)c1ccc(-n2c(CCC(=O)O)ccc2-c2ccc(OC)cc2)cc1,i
Cc1cc(Cl)ccc1N(CC(=O)NC1CCCC1)S(C)(=O)=O,i
CN(C)c1ccc(CNCc2cccs2)cc1,i
COc1ccc(CN2CCN(Cc3ccccc3Br)CC2)c(OC)c1OC,i
CCc1cccc(C)c1NC(=O)c1csc2ccccc12,20.2%
Cc1ccc(-c2nc(C#N)c(NCCN(C)C)o2)cc1,0.2%
CCOc1ccccc1C(=S)N1CCOCC1,i
O=C(CN1C(=O)c2ccccc2S1(=O)=O)NCc1ccco1,i
Cc1ccc(S(=O)(=O)N2C(=O)CCC2C(=O)Nc2ccccc2-c2ccccc2)cc1 (stereo not given),i
CCC(=O)Nc1ccc(S(=O)(=O)c2ccc(NC(=O)CC)cc2)cc1,i
COC(=O)CN(c1ccc(I)cc1)S(C)(=O)=O,i
Oc1ccccc1-c1nc(Nc2cccc(Cl)c2)c2ccccc2n1,i
COc1ccc(-c2cc(C(F)(F)F)nc(SCCC(=O)N3CCC(C(N)=O)CC3)n2)cc1,1.1%
Cn1cccc1-c1nc2ccc(NC(=O)c3ccc([N+](=O)[O-])cc3)cc2[nH]1,i
Cc1n[nH]c(=S)n1CC(=O)N1c2ccccc2CCc2ccccc21,i
Cc1ccccc1CNC(=O)c1ccccc1N(C)S(=O)(=O)c1ccccc1,i
CS(=O)(=O)N(CC(=O)Nc1cccnc1)c1ccc2c(c1)OCCO2,i
COc1cc(OC)cc(C(=O)N2CCC(C(=O)NCc3ccc(Cl)cc3)CC2)c1,i
O=C(COC(=O)C(Cc1ccccc1)N1C(=O)C2C3C=CC(C4CC34)C2C1=O)c1ccc(Cl)cc1 (stereo not given),i
COC(=O)c1ccc(Cl)c(NC(=O)COc2ccccc2OC)c1,i
CCn1c(COc2ccc(C)cc2)nnc1SCC(=O)Nc1cccc(C)c1C,i
CCOc1ccc(-c2c(C)sc3nc[nH]c(=O)c23)cc1,i

# Following part.
SMILES	Mtb growth
CCC(=O)Nc1ccc(Cl)cc1C(F)(F)F	i
COc1ccc(S(=O)(=O)NCCSCc2c(Cl)cccc2Cl)cc1OC	i
CC(C)c1ccc(-n2cnc3ccccc3c2=O)cc1	i
CCc1ccc(C(=O)Nc2nncs2)cc1	i
CC(=O)c1ccc(NC(=O)CSc2nnc(C34CC5CC(CC(C5)C3)C4)n2C)cc1	i
Cc1cc(C)c(S(=O)(=O)Nc2ccncc2)cc1C	12.2%
CCc1ccc(C(=O)NC(C(=O)N2CCN(c3ccccc3F)CC2)C(C)C)cc1 (stereo not given)	0.2%
CCOc1ccc(NC(=O)c2cc(Cl)cc(Cl)c2NC(=O)c2ccc(OC)cc2)cc1	i
CCCC(=O)NC(=S)Nc1cccc(-c2nn3c(C)nnc3s2)c1	i
COc1ccccc1CN1CCC(C(=O)N2CCN(c3ccccc3F)CC2)CC1	i
COc1ccc(-c2nc3ccccc3s2)cc1	1.8%
Cc1cc(OC(=O)c2ccco2)ccc1Cl	3.7%
O=C(CSc1cccc2cccnc12)NC1=NCCS1	i
N#CCCN(CCC#N)C(=O)c1cc(-c2ccccc2)nc2ccccc12	i
COc1ccc(N(CC(=O)Nc2ccc(Br)cc2F)S(=O)(=O)c2ccccc2)cc1OC	i
COc1cccc(OC)c1C(=O)NC(=S)Nc1cccc(NC(=O)c2ccccc2Cl)c1	i
O=[N+]([O-])c1ccc(Sc2ccccn2)c(Cl)c1	3.0%
CCCC(CCC)C(=O)Nc1ccc(NC(=O)c2cccs2)c(C)c1	0.3%
